# Bioassay records: PubChem BioAssay, National Center for Advancing Translational Sciences (NCATS)
# Prx2 Sm inh: Schistosoma Mansoni Peroxiredoxins (Prx2) | Schistosoma mansoni peroxiredoxin 2 (Prx2) | S. mansoni Prx2 activity coupled to TGR/GSH (TGR is thioredoxin glutathione reductase), NADPH fluorescence loss, qHTS; some inactives read as strong as hits | Potency, µM | hit rate 0.07% among 65,000 | AID 448, 2006; active means full or partial inhibition curve with a strong effect at the top dose; inconclusive means weaker partial or single-point curve; inactive means no accepted curve; note: series up to 57 µM; many of its hits are not listed in these tables
#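 Purified S. mansoni TGR and Prx2 in pH 7.4 phosphate buffer with EDTA and Tween-20 were preincubated with compounds for 15 min. Further NADPH/GSH was added, then a 2.5 mM H2O2 aliquot initiated turnover, followed kinetically by NADPH fluorescence.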
# LT uptake inh: qHTS Assay for Anthrax Lethal Toxin Internalization. hit rate 0.67% among 70,000. Cells, anthrax lethal toxin internalization, FRET ratio (460/530). AID 912, 2007. Potency, µM (highest dose often 40 µM), inactives show top-dose activity change, negative = inhibition, actives largely listed as inhibitors; active = well fitted falling ratio curve with the 530 nm signal flat; inconclusive = other ratio curves, or a change in one channel alone; inactive = flat curves in the ratio and both channels; the % refers to the ratio; note: % is set by controls: 0 for no effect and ±100 for the full control effect; nearly all actives have a fitted effect of over 50% in size; tested in ME-180 cells; beta-lactamase reporter
# * hit, by the source's call; ? = inconclusive; . = no result given; [ ] = dose if it differs, or a comment. Potency is the fitted concentration of half-maximal effect.
Structure | LT uptake inh | Prx2 Sm inh
CC(c1ccccc1)C1C(C#N)=C(N)OC2=C1C(=O)CC(C)(C)C2 (configuration not stated) | ? | .
COc1ccc(OC)c(NC(=O)CSc2nc3cccnc3n2C)c1 | 8% | >57
CCCCC(=O)Nc1cccc(-c2cn3ccsc3n2)c1 | 3% | >57
CN=C(NC#N)NCCSC[C@H]1N=CN=C1C | -2%[3.58 µM] | >57
Cc1ccc(-n2c(SCC(=O)NCc3ccco3)nnc2-c2cccnc2)c(C)c1 | 4% | >57
Cn1c(=O)n(C)c2cc(/C=N/n3cnnc3)ccc21 | 5% | >57
COc1ccc(NC(=O)CSc2nc3ccccc3c(=O)n2CCNC(C)=O)c(OC)c1 | 11% | >57
Cn1cnc2nc3n(c2c1=O)CCC3 | 8% | .
Cc1cccc(OCc2nnc(SCc3nc4cc(C(F)(F)F)ccc4c(=O)[nH]3)o2)c1 | -20% | >57
c1ccc(-c2cccc(N3CC4(CCNCC4)C3)c2)cc1 | -13% | >57
CCC(=Nc1ccc(OC)cc1OC)c1c(O)n(C)c(=O)n(C)c1=O | -3% | >57
CC1CC(C)CN(CCCNC(=O)Cn2ncc3c(=O)oc4ccccc4c32)C1 (configuration not stated) | -6% | >57
COc1ccc(-c2nc3cnc(Nc4cccc(OC)c4)nc3n(C[C@H]3CCCO3)c2=O)cc1 | ? | >57
COc1ccccc1NC(=O)CCc1nc(-c2cccs2)no1 | -2% | >57
CN(C)c1ccc(CN(C(=O)COc2ccc(Br)cc2)C2CCS(=O)(=O)C2)cc1 (configuration not stated) | 5% | >57
Cc1ccc(-n2ncc3c(=O)n(CC(=O)NC4CCCC4)cnc32)cc1C | 2% | >57
CC(C)CNC(=O)c1ccccc1NC(=O)CN(c1ccc2c(c1)OCCO2)S(C)(=O)=O | -3% | >57
O=C(NCN1CCCCC1)c1cccnc1 | 12% | >57
O=C(CN1C(=O)C2CC=CCC2C1=O)NC1=NCCS1 (configuration not stated) | 7% | >57
Clc1ccccc1-c1nc(NC2CCNCC2)c2ccccc2n1 | -8% | >57
CCCn1c(C)nc2c(NCCOC)nc(C)nc21 | -6% | .
CCOc1cccc(C(=O)Nc2cccc(-c3nnc(-c4ccccc4)o3)c2)c1 | ? | .
CC(C)COc1ccc(-c2nnn(CC(=O)N3CCCC3)n2)cc1 | -8% | >57
Nc1cc(Cl)ccc1Cl | -2% | .
CCn1cc(C(=O)NCCCOC)c(=O)c2cc(S(=O)(=O)N(C)C)ccc21 | -1% | >57
CC1Cc2nc(SCC(N)=O)n(C)c(=O)c2S1 (configuration not stated) | 21% | >57
CCOC(=O)Cc1csc(NC(=O)c2cccs2)n1 | 11% | >57
Cc1cc(C)cc(OCC(=O)Nc2cccc(-c3nc4ncccc4o3)c2)c1 | -26% | >57
O=C(NCc1cccnc1)C1CCCN(S(=O)(=O)c2ccc(Cl)cc2)C1 (configuration not stated) | ? | >57
O=C(Nc1ccon1)c1ccc(Br)o1 | -3% | >57
CCCn1c(SCC(=O)N2CCCc3ccccc32)nnc1-c1ccco1 | -11% | >57
Cc1c(CNC(=O)c2cnn3c2NC(c2ccccc2)CC3C(F)(F)F)cnn1C (configuration not stated) | 7% | >57
O=C(COC(=O)c1ccco1)NCC1CCCO1 (configuration not stated) | 4% | >57
c1csc(Cn2c(-c3cccs3)nc3ccccc32)c1 | -1% | >57
COc1ccc(OCC(=O)N2CCN(C(=O)COc3ccc(Br)cc3)CC2)cc1 | 9% | >57
Cc1onc(-c2ccccc2)c1C(=O)NC(C)C1CCCO1 (configuration not stated) | 8% | >57
COc1cccc(-c2csc3nnc(SCC(=O)c4ccc(NC(C)=O)cc4)n23)c1 | -8% | >57
C=CCN1C(=O)CN=C1Nc1cc(C)cc(C)c1 | -9% | >57
O=C(CCn1nnc2ccccc21)N1CCN(c2ccccc2)CC1 | 3% | >57
CCCCOC(=O)C(C#N)c1nc2ccccc2nc1N1CCN(Cc2ccc3c(c2)OCO3)CC1 (configuration not stated) | . | >57
CCc1nnc(NC(=O)c2ccc(S(=O)(=O)N(CC)Cc3ccccc3)cc2)o1 | 8% | >57
Cn1c(=O)cc(SCC(=O)Nc2ccccn2)c2ccccc21 | 2% | >57
Cc1ccc2c3c(c(SCC(=O)Nc4nonc4C)nc2c1)CCCC3 | -7% | >57
CCc1cc2ccc(OC)cc2nc1SCC(=O)Nc1cc(C)on1 | 15% | >57
Cc1cccc(CNc2ncncc2-c2ccccc2C)c1 | -11% | >57
CC(C)(C)C(=O)/C=c1\[nH]c(=O)/c(=C\c2ccc(C#N)cc2)s1 | -24% | >57
COC(=O)c1ccc(NC(=O)Cn2nnc3ccccc32)cc1 | ? | >57
COCCn1c(C)cc2c(c1=O)C(c1ccccc1F)C(C#N)=C(N)O2 (configuration not stated) | -3% | >57
c1ccc(-c2noc(-c3ccc4ccccc4c3)n2)nc1 | -4% | >57
CCOC(=O)N1CCN(C(=O)C2CCC(CNS(=O)(=O)c3ccc(Cl)cc3)CC2)CC1 (configuration not stated) | -11% | >57

# (next part)
Structure | LT uptake inh | Prx2 Sm inh
O=S(=O)(c1ccccc1)c1nc(-c2ccco2)oc1NCc1ccco1 | -6% | >57
CCCN1C(=O)c2cc(C(=O)O)ccc2C1O (configuration not stated) | 6% | >57
Cc1ccccc1-n1c(C)nnc1SCc1nc2ccccc2s1 | 1% | >57
Cn1c(CCNC(=O)c2ccccc2)nc2ccccc21 | 6% | >57
CC1=NNC(=S)NCCCN2CCN(CCCNC(=S)NN=C(C)C=NNC(=S)NCCCN3CCN(CCCNC(=S)NN=C1)CC3)CC2 | -13%[8 µM] | >57
Cc1nc2sc(C(c3ccco3)N3CCN(c4ccc(F)cc4)CC3)c(O)n2n1 (configuration not stated) | ? | >57
COc1ccc(CNC(=O)CCCNS(=O)(=O)c2cccc3nonc23)cc1 | -16% | >57
CCOc1cc(C2CC(=O)N3CN(C4CCCCC4)CSC3=C2C#N)ccc1O (configuration not stated) | -7% | >57
Nc1nnnn1/N=C/C(Br)=C/c1ccccc1 | -2% | >57
CCOC(=O)Cc1csc(NS(=O)(=O)c2ccc3c4c(cccc24)C(=O)N3CC)n1 | 5% | >57
CCS(=O)(=O)N1CCC(c2nc(-c3ccc(C)cc3)no2)CC1 | -5% | >57
Cc1ccc(-c2cc(C(=O)NCCN3CCOCC3)no2)cc1 | 18% | >57
Cc1cc(C)cc(-n2ccnc2SCC(=O)Nc2nccs2)c1 | 2% | >57
CC1CCc2nc(NC(=O)c3ccco3)sc2C1 (configuration not stated) | -15% | >57
CCOC(=O)c1[nH]c(C)c(C(=O)Nc2ccc(C)cc2C)c1C | -24% | >57
CCOc1ccc(C(=O)N2CCCC2)cc1OC | 0% | >57
CCNc1ncc2ncc(=O)n(Cc3cccs3)c2n1 | -12% | >57
O=C(O)[C@@H](c1ccccc1)[C@@H](C(=O)O)c1ccccc1 | 3%[8 µM] | >57
CCc1ccccc1N1CSC2=C(C#N)C(c3cc(OC)c(OC)cc3OC)CC(=O)N2C1 (configuration not stated) | ? | >57
CC(C)Cn1c(N)c(C(=O)CSc2nnnn2-c2ccc(Cl)cc2)c(=O)n(C)c1=O | -1% | >57

# Arranged by formula weight (rising): some entries from above.
Structure | LT uptake inh | Prx2 Sm inh
O=C(O)[C@@H](c1ccccc1)[C@@H](C(=O)O)c1ccccc1 | 3%[8 µM] | >57
Cc1ccc(-c2cc(C(=O)NCCN3CCOCC3)no2)cc1 | 18% | >57
Cc1cc(C)cc(-n2ccnc2SCC(=O)Nc2nccs2)c1 | 2% | >57

# The listing continues.
Structure | LT uptake inh | Prx2 Sm inh
COc1ccccc1NC(=O)c1cccc(NC(=O)c2ccco2)c1 | 10% | >57
COc1cc(CC(=O)OC2CCOC2=O)cc(OC)c1OC (configuration not stated) | -3% | >57
O=c1cc(N2CCc3ccccc3C2)[nH]c(=O)n1-c1ccc(Cl)cc1 | 5% | >57
O=C1CC(N2CCN(c3ccc(S(=O)(=O)N4CCOCC4)cc3)CC2)C(=O)N1Cc1ccccc1 (configuration not stated) | -11% | >57
CN(C)CCCOc1nn(Cc2ccccc2)c2ccccc12 | -3%[3.58 µM] | >57
C=C(c1ccc(O)cc1)c1ccc(O)cc1 | 15% | >57
Cc1ccccc1NC(=O)CSC(N)=O | -16% | >57
CN1C(=O)c2ccccc2C(C(=O)NCCCN2CCCC2=O)C1c1c[nH]c2ccccc12 (configuration not stated) | -4% | >57
Brc1ccc(-c2cn3cccnc3n2)cc1 | 7% | >57
CNc1cc(-n2nc(C)cc2-c2ccccc2)ncn1 | 7% | .
CCOc1ccccc1CN(Cc1ccco1)S(=O)(=O)c1ccc(-n2cnnn2)c(OC)c1 | ? | >57
COc1ccccc1Cn1c(CCCO)nc2ccccc21 | 2% | >57
O=C(CNC(=O)c1ccco1)OCc1ccc(C(=O)Oc2ccccc2)cc1 | -2% | >57
COCCn1cc(C(=O)N2CCC(C)CC2)c2c3ccccc3n(C)c2c1=O | -2% | >57
CCOC(=O)c1c(C)[nH]c(C)c1C(=O)COC(=O)c1cccc(S(=O)(=O)NC)c1 | -13% | >57
CC(=O)OC1CC(C)(C)N(OC(=O)c2ccccc2)C(C)(C)C1 | 6% | >57
Cc1nc(SCN2C(=O)c3ccccc3C2=O)n[nH]1 | 13% | .
Cc1ccc(C(=O)N(Cc2nc(-c3ccc(C)cc3)no2)C(C)C)cc1 | -8% | >57
Cc1ccc(-c2nnc3sc(CCc4ccccc4)nn23)cc1 | ? | >57
CCOCCCNC(=O)C1CCC(CNS(=O)(=O)c2ccc(F)cc2)CC1 (configuration not stated) | 7% | >57
c1cc2n(c1)-c1c(ccc3c1OCO3)CNC2c1ccc2c(c1)OCO2 (configuration not stated) | 10% | >57
O=C(C1CC1)N1CCc2cc(Br)cc(S(=O)(=O)NCC3COc4ccccc4O3)c21 (configuration not stated) | -24% | >57
c1ccc(CN2CCN(c3nc4ccccc4n4cnnc34)CC2)cc1 | -14% | >57
Cc1ccc(S(=O)(=O)NCCCN(C)C)cc1 | -13% | >57
CCCCn1c(SCC(=O)Nc2cc(C)[nH]n2)nc2ccsc2c1=O | ? | >57
O=C(CCCn1c(=S)[nH]c2ccc(Br)cc2c1=O)N1CCN(c2ccccn2)CC1 | ? | >57
O=c1nc2ccccc2c2n1C[C@H](CN1CCN(c3ccccc3)CC1)N2 | -15% | >57
COc1ccc(S(=O)(=O)N2CCCC2C(=O)NCc2cccs2)cc1 (configuration not stated) | 13% | >57
CCCCOC(=O)CCc1n[nH]c(=O)[nH]c1=O | -7% | .
C=CCn1c(SCC(=O)Nc2c(C)nn(Cc3ccccc3)c2C)nnc1C(O)c1ccccc1 (configuration not stated) | -10% | >57

# 4 compounds picked at random from those above, as already listed:
Structure | LT uptake inh | Prx2 Sm inh
O=C(C1CC1)N1CCc2cc(Br)cc(S(=O)(=O)NCC3COc4ccccc4O3)c21 (configuration not stated) | -24% | >57
Cc1ccc(S(=O)(=O)NCCCN(C)C)cc1 | -13% | >57
C=CCn1c(SCC(=O)Nc2c(C)nn(Cc3ccccc3)c2C)nnc1C(O)c1ccccc1 (configuration not stated) | -10% | >57
CCCCn1c(SCC(=O)Nc2cc(C)[nH]n2)nc2ccsc2c1=O | ? | >57

# Other records follow.
Structure | LT uptake inh | Prx2 Sm inh
COC(=O)c1nnn(-c2nc(N3CCCCC3)nc(N3CCCCC3)n2)c1C | -3% | >57
O=C(Nc1ccccc1-c1nc2ccccc2s1)c1ccco1 | -19% | .
O=C(Oc1ccc(/C=N/O)cc1)c1ccccc1 | -24% | .
COc1ccc(OC)c(NC(=O)C2C3CCC(O3)C2C(=O)O)c1 (configuration not stated) | -1% | .
Cc1ccc(S(=O)(=O)C2(C(=O)Nc3ccc4c(c3)OCO4)CC2)cc1 | -7% | >57
CS(=O)(=O)N1CCC2(CC1)CN(c1cccc(-c3ccccc3)c1)C2 | ? | >57
CCCCNc1nc(C)nc2c1nc(C)n2CCC | 3% | .
COC(=O)c1cn(C(=O)c2ccccc2F)nc1N | . | >57
COc1cccc(-n2c(SCC(=O)O)nnc2-c2cccnc2)c1 | 4% | >57
Cc1cc(S(=O)(=O)NCCCN2CCOCC2)ccc1F | -6% | >57
COc1ccc(C2=NOC(C(=O)NCC(C)C)C2)cc1 (configuration not stated) | -7% | >57
O=C(C1CCN(S(=O)(=O)c2cccnc2)CC1)N1CCN(C2CCCC2)CC1 | 3% | >57
COc1cccc(-c2cc(C(=O)Nc3cccc(O)c3)no2)c1 | 9% | >57
O=C(c1c[nH]c2ccc(S(=O)(=O)N3CCOCC3)cc2c1=O)N1CCCC1 | -2% | >57
CCCN1Cc2cccc(C(=O)Nc3ccc4c(c3)OCO4)c2C1=O | 6% | >57
CCOC(=O)c1cnc2c(C)c(Cl)ccc2c1N1CCOCC1 | 0% | >57
Cc1c(Cl)cccc1NC(=O)CCN1CCCCC1 | -3% | >57
ClC(Cl)(Cl)c1ccccc1 | ? | .
Cc1noc(C)c1CSc1nc2ccccc2n1CCc1ccccc1 | ? | >57
CCOC(=O)Cn1c(C(C)=O)nc2ccccc21 | 3% | .
CC(C)CSC[C@@H]1O[C@H](n2cnc3c(N)nccc32)[C@H](O)[C@@H]1O | -14%[8 µM] | >57

# Not all compounds are listed. The share of hits here may be higher or lower than overall.
